High-throughput results: PubChem, several laboratories
Rce1 inhib: inhibitors of yeast Ras-converting enzyme; calls only; Q03530; actives 0.27% (n = 290,000); yeast membranes, quenched prenylated peptide cleavage fluorescence; AID 2563;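 active means fall in fluorescence gain of 50% or more versus controls, with final raw signal at or below 3038400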;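 further: plate controls were neutral control wells for no effect and wells lacking membranes for full effect; tested at 10 µM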
Target sequence (Q03530 whole entry, looked up): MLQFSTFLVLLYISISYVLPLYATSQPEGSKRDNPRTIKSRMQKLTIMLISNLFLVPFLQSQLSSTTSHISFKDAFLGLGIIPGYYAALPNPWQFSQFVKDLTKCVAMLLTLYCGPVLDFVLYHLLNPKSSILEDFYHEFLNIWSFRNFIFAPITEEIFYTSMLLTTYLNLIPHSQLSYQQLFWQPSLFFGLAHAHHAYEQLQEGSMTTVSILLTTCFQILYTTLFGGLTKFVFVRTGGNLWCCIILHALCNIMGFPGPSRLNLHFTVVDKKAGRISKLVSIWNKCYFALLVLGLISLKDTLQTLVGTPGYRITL
CSC inhib: blocks cancer stem cells. cancer stem cell-like cells viability, luminescence. inhibition, % at 7.5 µM. actives 1.1% (n = 300,000). AID 2717;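 active means mean at 75% or more and at least half the replicates too; tested in HMLE shEcad cells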;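 further: 0% = median of negative and 100% = median of positive control wells; the first replicate is given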
PABP polyA inh: blocks human PABP binding to poly(A) RNA; fluorescence polarization; inhibition, % at 35 µM; actives 1% (n = 290,000); AID 2014;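 active means 50% or more with normal probe brightness, or confirmed in later tests; about a fifth of its hits are not listed in these tables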;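 further: calls also rest on retests at 20 µM and on dose response follow-up; controls were probe without protein and protein plus probe with vehicle; some compounds called inactive have numbers as strong as hits; many hits fall short of the cut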
Target sequence (P11940 whole entry, looked up): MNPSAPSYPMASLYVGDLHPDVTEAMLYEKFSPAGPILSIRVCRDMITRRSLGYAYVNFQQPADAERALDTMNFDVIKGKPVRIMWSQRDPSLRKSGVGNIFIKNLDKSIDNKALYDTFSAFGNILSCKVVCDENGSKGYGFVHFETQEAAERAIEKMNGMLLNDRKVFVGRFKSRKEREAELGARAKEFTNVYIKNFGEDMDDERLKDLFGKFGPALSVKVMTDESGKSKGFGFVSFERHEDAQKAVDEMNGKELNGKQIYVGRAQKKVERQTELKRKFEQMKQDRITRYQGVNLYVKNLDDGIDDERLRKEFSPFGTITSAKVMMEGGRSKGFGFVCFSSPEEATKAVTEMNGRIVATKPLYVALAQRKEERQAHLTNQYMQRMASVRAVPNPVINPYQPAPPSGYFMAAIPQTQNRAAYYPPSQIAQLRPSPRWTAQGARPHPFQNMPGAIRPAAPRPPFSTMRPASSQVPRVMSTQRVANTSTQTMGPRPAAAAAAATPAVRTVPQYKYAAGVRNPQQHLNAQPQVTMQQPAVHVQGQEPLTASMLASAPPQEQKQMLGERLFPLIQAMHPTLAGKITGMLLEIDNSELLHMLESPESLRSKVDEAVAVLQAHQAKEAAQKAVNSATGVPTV
eIF4H FP inh: inhibitors of RNA binding by human eIF4H. Q15056. eIF4H fluorescence polarization binding assay. inhibition, % at 35 µM. actives 0.94% (n = 290,000);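 active means 50% or more with normal probe brightness, or confirmed in later tests; about a fifth of its hits are not listed in these tables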;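 further: calls also rest on retests at 20 µM and on dose response follow-up; 0% = protein and probe with vehicle and 100% = probe without protein; strong numbers were not always called active; many hits fall short of the cut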
Env fusion inh: inhibitors of HIV Env-mediated cell fusion; HeLa-JRFL Env/CEM21 cell fusion, luciferase; inhibition, % at 12.3 µM; actives 1.1% (n = 360,000); AID 651610;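 active means mean replicate inhibition score of at least 50 and every replicate individually at or above 50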;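 further: 0% = plate neutral controls and 100% = maraviroc near 300 nM; one replicate is shown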
MT1-MMP act inh: blocks activation of human MT1-MMP; HT1080 RFP-PRO-GFP cells, GFP/RFP ratio fluorescence, overnight; percent of plate control window, DMSO zero; GFP/RFP ratio change, % at 20 µM; P50281; actives 0.061% (n = 360,000); AID 651647;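 active means GFP/RFP ratio change of at least 30% with cell ATP level not reduced by more than half and red fluorescence within 50% of control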; further: strong numbers were not always called active
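Material – HT1080 RFP-PRO-GFP cells · Control set – DMSO wells and RFP-L50D-GFP cells · Incubation – overnight cell settling, then overnight compound exposure, 37 °C, 5% CO2 · Compound dosing – single-point 20 µM compound, 1% DMSO · Read-out – GFP/RFP fluorescence ratio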
UUG fidelity: alters start codon recognition fidelity in yeast | S. cerevisiae UUG-firefly luciferase reporter, luminescence/redox ratio | activity score, % at 18.7 µM | actives 0.13% (n = 350,000) | AID 602363;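 active means replicate mean at a twofold rise or more, about +100% in these data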;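 further: firefly luciferase made from a UUG start codon reports start codon fidelity; reporter light over untreated wells divided by growth signal over untreated wells; some hits fall short of that in this replicate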
MT1-MMP act inh RFP: further read-out of MT1-MMP act inh, marked with its call; RFP signal change, %; measured here: RFP expression control read;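 0 = vehicle wells; hits needed this value within 50% of zero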
* marks the source's active call; other numbers are inactive results. Only part of the results is shown. The share of hits here may be higher or lower than overall.

Results for CCOc1ccc(N(CC(=O)NCc2ccc(OC)cc2)S(=O)(=O)c2c(C)noc2C)cc1 ?
Rce1 inhib: inactive; CSC inhib: -9; PABP polyA inh: -10; eIF4H FP inh: 2; Env fusion inh: -6; MT1-MMP act inh: 7; UUG fidelity: -24; MT1-MMP act inh RFP: 2

Results for Cc1ccc(OCCNC(=O)CNC(=O)c2ccc(C)cc2)cc1 ?
Rce1 inhib: inactive; CSC inhib: 15; PABP polyA inh: 14; eIF4H FP inh: -1; Env fusion inh: -12; MT1-MMP act inh: -3; UUG fidelity: -8; MT1-MMP act inh RFP: 3

How did CCn1ccnc1CN(C)C(=O)CCc1nnc(CCC2CCCCC2)o1 do in these assays?
Rce1 inhib: inactive; CSC inhib: -3; PABP polyA inh: -8; eIF4H FP inh: -2; Env fusion inh: -4; MT1-MMP act inh: 7; UUG fidelity: -15; MT1-MMP act inh RFP: 2

What do the screens show for `CCN(CC)S(=O)(=O)c1ccc2oc(Nc3ccc4c(c3)OCCO4)nc2c1`?
Rce1 inhib: inactive; CSC inhib: 12; PABP polyA inh: -2; eIF4H FP inh: -11; MT1-MMP act inh: 1; UUG fidelity: -5; MT1-MMP act inh RFP: 0

How did CCN(C(=O)c1ccc(NC(C)=O)cc1)c1ccccc1C do in these assays?
Rce1 inhib: inactive; CSC inhib: 2; PABP polyA inh: 11; eIF4H FP inh: -6; MT1-MMP act inh: 3; UUG fidelity: 4; MT1-MMP act inh RFP: 4

What do the screens show for `CN(CC(=O)Nc1cccc(Cl)c1)S(=O)(=O)c1ccc2c(c1)n(C)c(=O)c(=O)n2C`?
Rce1 inhib: inactive; CSC inhib: 15; PABP polyA inh: 4; eIF4H FP inh: -8; Env fusion inh: -4; MT1-MMP act inh: -4; UUG fidelity: -8; MT1-MMP act inh RFP: 3

What do the screens show for `CCOCCCN(C(=O)c1snc(C(N)=O)c1N)C(C(=O)NC(C)(C)C)c1ccc(Cl)cc1` (centres undefined)?
Rce1 inhib: inactive; CSC inhib: -14; PABP polyA inh: 2; eIF4H FP inh: -10; Env fusion inh: 6; MT1-MMP act inh: 0; UUG fidelity: -6; MT1-MMP act inh RFP: 5

Results for COc1ccc2[nH]c(C(=O)Nc3ccc(C)c(F)c3)cc2c1 ?
Rce1 inhib: inactive; CSC inhib: 3; PABP polyA inh: 12; eIF4H FP inh: -5; Env fusion inh: -52; MT1-MMP act inh: 0; MT1-MMP act inh RFP: -2

Results for CCCCCCCCCCCCC/C=C/[C@@H](O)[C@@H](N)CO ?
Rce1 inhib: inactive; CSC inhib: 2; Env fusion inh: 15; MT1-MMP act inh: 1; UUG fidelity: -17; MT1-MMP act inh RFP: -2

What do the screens show for `Fc1ccccc1CSc1nnc(Cn2cnc3ccccc32)n1-c1ccccc1`?
Rce1 inhib: inactive; CSC inhib: -10; PABP polyA inh: -11; eIF4H FP inh: -7; MT1-MMP act inh: 6; UUG fidelity: -20; MT1-MMP act inh RFP: -1

How did CCOc1ccc(OC(=O)c2cccc(S(=O)(=O)N3CCN(C)CC3)c2)cc1 do in these assays?
Rce1 inhib: inactive; CSC inhib: 11; Env fusion inh: 2; MT1-MMP act inh: 6; UUG fidelity: 18; MT1-MMP act inh RFP: 1

Results for CC(=O)OCC(=O)C1CCC2C3CC=C4CC(O)CCC4(C)C3CCC12C (centres undefined) ?
CSC inhib: -18; Env fusion inh: -6; MT1-MMP act inh: 3; UUG fidelity: -8; MT1-MMP act inh RFP: -5

What do the screens show for `CC(=O)c1cc2cccc(OC3(C)CCN(Cc4ccc5ccccc5c4)C3)c2o1` (centres undefined)?
Env fusion inh: 47; MT1-MMP act inh: -2; UUG fidelity: 3; MT1-MMP act inh RFP: -1

Results for CCCCCCOC1(c2ccccc2)OC(=O)c2ccccc21 (centres undefined) ?
Rce1 inhib: inactive; CSC inhib: -2; PABP polyA inh: 7; eIF4H FP inh: -8; MT1-MMP act inh: -1; UUG fidelity: -6; MT1-MMP act inh RFP: -2

Results for CCOc1ccc(CCNC(=O)c2nnn(CC(=O)Nc3ccc(C)cc3)c2N)cc1OCC ?
Rce1 inhib: inactive; CSC inhib: -18; PABP polyA inh: -3; eIF4H FP inh: 15; MT1-MMP act inh: -1; UUG fidelity: -16; MT1-MMP act inh RFP: 0

What do the screens show for `Cc1cccc(Cn2c(NCCO)nc3c2c(=O)n(C)c(=O)n3C)c1`?
Rce1 inhib: inactive; CSC inhib: -7; PABP polyA inh: -4; eIF4H FP inh: -5; MT1-MMP act inh: 12; MT1-MMP act inh RFP: -20

What do the screens show for `Cn1c(=O)[nH]c(=O)c2c1nc(CN1CCN(Cc3ccccc3)CC1)n2CC(N)=O`?
Rce1 inhib: inactive; CSC inhib: 1; PABP polyA inh: 10; eIF4H FP inh: -8; Env fusion inh: 2; MT1-MMP act inh: -2; UUG fidelity: -5; MT1-MMP act inh RFP: 5

What do the screens show for `Cc1ccc(N2C(=O)N3[C@H](c4ccc(F)cc4)[C@@H]4C(=O)N(C5CCCCC5)C(=O)[C@@H]4[C@]3(C)C2=O)cc1`?
Rce1 inhib: inactive; CSC inhib: 7; PABP polyA inh: 5; eIF4H FP inh: -7; MT1-MMP act inh: 0; UUG fidelity: -2; MT1-MMP act inh RFP: -2

What do the screens show for `O=C(NCCNc1ccc([N+](=O)[O-])cc1C(F)(F)F)c1ccccc1`?
Rce1 inhib: inactive; CSC inhib: 9; PABP polyA inh: -12; eIF4H FP inh: -16; MT1-MMP act inh: 5; MT1-MMP act inh RFP: -4

What do the screens show for `O=S(=O)(Nc1ccccc1F)c1cccc(NC(=S)NCCN2CCOCC2)c1`?
CSC inhib: 1; Env fusion inh: 4; MT1-MMP act inh: -4; UUG fidelity: -22; MT1-MMP act inh RFP: 1

Brought forward from above: 2 entries; new compounds follow.
What do the screens show for `O=C(NCCNc1ccc([N+](=O)[O-])cc1C(F)(F)F)c1ccccc1`?
Rce1 inhib: inactive; CSC inhib: 9; PABP polyA inh: -12; eIF4H FP inh: -16; MT1-MMP act inh: 5; MT1-MMP act inh RFP: -4

What do the screens show for `O=S(=O)(Nc1ccccc1F)c1cccc(NC(=S)NCCN2CCOCC2)c1`?
CSC inhib: 1; Env fusion inh: 4; MT1-MMP act inh: -4; UUG fidelity: -22; MT1-MMP act inh RFP: 1

How did COc1ccc(Cl)c2sc(NC(=O)C3=COCCO3)nc12 do in these assays?
Rce1 inhib: inactive; CSC inhib: 6; MT1-MMP act inh: 3; MT1-MMP act inh RFP: -2

Results for CCCCNC(=S)N(Cc1ccco1)Cc1cc2cc3c(cc2[nH]c1=O)OCCO3 ?
Rce1 inhib: inactive; PABP polyA inh: 5; eIF4H FP inh: 3; Env fusion inh: 8; MT1-MMP act inh: -1; MT1-MMP act inh RFP: -1

How did Cc1nn(C)cc1[C@@H]1C[C@H]2CN(Cc3cccc(Cl)c3)C(=O)[C@]23CCCN13 do in these assays?
Rce1 inhib: inactive; CSC inhib: -3; PABP polyA inh: -17; eIF4H FP inh: 0; Env fusion inh: 13; MT1-MMP act inh: -6; MT1-MMP act inh RFP: -3

How did C[n+]1ccccc1C1CCCC/C1=N\NC(N)=S (centres undefined) do in these assays?
Rce1 inhib: inactive; CSC inhib: -12; PABP polyA inh: -8; eIF4H FP inh: 2; Env fusion inh: -13

What do the screens show for `CCOC(=O)Cn1nnc(-c2ccc(SC)cc2)n1`?
Rce1 inhib: inactive; CSC inhib: -4; PABP polyA inh: 8; eIF4H FP inh: 5; Env fusion inh: -136; MT1-MMP act inh: -1; UUG fidelity: -20; MT1-MMP act inh RFP: 3

What do the screens show for `c1cnc2nc3c4ccccc4c4ccccc4c3nc2c1`?
Env fusion inh: -305; MT1-MMP act inh: -14; UUG fidelity: -1; MT1-MMP act inh RFP: -4

How did CS(=O)(=O)N(Cc1ccccc1)c1ccc(C(=O)Nc2cccnc2)cc1 do in these assays?
Rce1 inhib: inactive; CSC inhib: 4; PABP polyA inh: -2; eIF4H FP inh: 1; Env fusion inh: -19; MT1-MMP act inh: 1; UUG fidelity: -26; MT1-MMP act inh RFP: -2

Results for Oc1c(N=NC(=S)Nc2ccccc2F)c2ccccc2n1Cc1ccc(Cl)cc1 ?
Rce1 inhib: inactive; CSC inhib: 27; PABP polyA inh: -3; eIF4H FP inh: 6; Env fusion inh: 32; MT1-MMP act inh: 0; MT1-MMP act inh RFP: -4

Results for CC(=O)Nc1cccc(NC(=O)c2ccc(Br)cc2)c1 ?
Rce1 inhib: inactive; CSC inhib: -13; PABP polyA inh: 5; eIF4H FP inh: 19; Env fusion inh: -4; MT1-MMP act inh: 3; UUG fidelity: -14; MT1-MMP act inh RFP: 2

Results for Cc1ccc(CN2CCNC(=O)C2CC(=O)NCc2csc(C(C)C)n2)cc1 (centres undefined) ?
Rce1 inhib: inactive; CSC inhib: -13; PABP polyA inh: 11; eIF4H FP inh: -6; Env fusion inh: -3; MT1-MMP act inh: 1; UUG fidelity: 1; MT1-MMP act inh RFP: 4

Results for COC(C[C@H]1O[C@H]1[C@@H](O)COCc1ccccc1)OC ?
Rce1 inhib: inactive; PABP polyA inh: 3; eIF4H FP inh: 2; Env fusion inh: -39; MT1-MMP act inh: 0; UUG fidelity: -10; MT1-MMP act inh RFP: 0

Results for Cc1cc(Cl)ccc1OCC(=O)NNC(=O)c1cnccn1 ?
CSC inhib: 23; PABP polyA inh: -9; eIF4H FP inh: 5; Env fusion inh: 3; MT1-MMP act inh: 4; MT1-MMP act inh RFP: 6

How did COc1ccc(NC(=O)Cn2cccc2)c(OC)c1 do in these assays?
Rce1 inhib: inactive; PABP polyA inh: -3; eIF4H FP inh: -2; Env fusion inh: -35; MT1-MMP act inh: -1; UUG fidelity: -24; MT1-MMP act inh RFP: 1

Results for Cc1cc2nc(SCC(=O)O)nc(C)c2cc1C ?
Rce1 inhib: inactive; CSC inhib: -12; PABP polyA inh: 1; eIF4H FP inh: 5; MT1-MMP act inh: 1; UUG fidelity: -11; MT1-MMP act inh RFP: 2

How did NC(=O)CC(NC(=O)Cc1ccc(Br)cc1)c1ccc(N2CCc3ccccc3C2)c([N+](=O)[O-])c1 (centres undefined) do in these assays?
Rce1 inhib: inactive; CSC inhib: 15; PABP polyA inh: -1; eIF4H FP inh: 5; Env fusion inh: 15; MT1-MMP act inh: 4; UUG fidelity: -9; MT1-MMP act inh RFP: 0

How did C=C1CCC2C(C)(C)[C@@H](O)CC[C@@]2(C)[C@@H]1COc1ccc2ccc(=O)oc2c1 (some centres undefined) do in these assays?
Rce1 inhib: inactive; CSC inhib: 16; PABP polyA inh: 4; eIF4H FP inh: 0; Env fusion inh: 25; MT1-MMP act inh: -6; UUG fidelity: -1; MT1-MMP act inh RFP: -10

How did COCCN(C(=S)Nc1ccc(Cl)cc1OC)C1CCN(C(C)=O)CC1 do in these assays?
Rce1 inhib: inactive; CSC inhib: -1; PABP polyA inh: 5; eIF4H FP inh: -1; Env fusion inh: -6; MT1-MMP act inh: 6; UUG fidelity: -16; MT1-MMP act inh RFP: 9

Results for C=CCN1C(=O)c2ccc(C(=O)OCC(=O)N(C)C3CCCCC3)cc2C1=O ?
Rce1 inhib: inactive; CSC inhib: -6; PABP polyA inh: 6; eIF4H FP inh: 2; Env fusion inh: -44; MT1-MMP act inh: 0; MT1-MMP act inh RFP: 2

Results for O=C(CN1CCCC1=O)NC1C2CC3CC(C2)CC1C3 (centres undefined) ?
Rce1 inhib: inactive; CSC inhib: -8; PABP polyA inh: -8; eIF4H FP inh: -3; Env fusion inh: 4; MT1-MMP act inh: 4; MT1-MMP act inh RFP: 5

Results for O=C(COC(=O)c1cnc(Cl)c(Cl)c1)NCCC1=CCCCC1 ?
Rce1 inhib: inactive; CSC inhib: -12; PABP polyA inh: 18; eIF4H FP inh: -15; Env fusion inh: -17; MT1-MMP act inh: -3; MT1-MMP act inh RFP: -1
